# UCH37 inh = human UCH37 deubiquitinating enzyme inhibition; purified proteasome/UCH37, Ub-AMC cleavage fluorescence; 330,000 tested, 0.33% active; inhibition, % (test concentration not listed); AID 588478; Q9Y5K5;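 active = mean of two replicates above 20%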;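 also: 0% = compound-free wells with enzyme and 100% = wells lacking proteasome; stock transfer was 100 nL into about 20 µL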
#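 Material: Human UCH37 enzyme supplied as purified proteasome complex | Schedule: 30 min compound-proteasome preincubation then 25 min substrate reaction, room temperature | Detection: AMC fluorescence from Ub-AMC cleavage, excitation 355 nm, emission 460 nm | Benchmarks: Wells without proteasome as full block, compound-free enzyme plus substrate as uninhibited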
# E coli growth = blocks Escherichia coli growth; OD600, 23 h; hits give low values; OD600 absorbance (concentration not given with the values); 330,000 tested, 0.21% active; AID 1053175;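 active = OD600 absorbance below the run mean of sample wells minus 3.6 SD, in any replicate, cut at about 0.56 in these data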;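 also: stock transfer was 300 nL into about 60 µL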
# HNF4A DNA FP = change in binding of human HNF4 alpha to DNA; HNF4a-FITC DNA binding, fluorescence polarization, 1 h; P41235; AID 1224865; 360,000 tested, 0.3% active; activity change, % at 10 µM; in the data active = activity change above about 30%, passing the limit was not always enough;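 also: controls were the assay level and a saturating level of protein; the project sought stronger binding though the title names inhibitors; some compounds called inactive have numbers as strong as hits; positive values seem to mean higher polarization but the record does not say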
# Target sequence (P41235 whole entry, looked up): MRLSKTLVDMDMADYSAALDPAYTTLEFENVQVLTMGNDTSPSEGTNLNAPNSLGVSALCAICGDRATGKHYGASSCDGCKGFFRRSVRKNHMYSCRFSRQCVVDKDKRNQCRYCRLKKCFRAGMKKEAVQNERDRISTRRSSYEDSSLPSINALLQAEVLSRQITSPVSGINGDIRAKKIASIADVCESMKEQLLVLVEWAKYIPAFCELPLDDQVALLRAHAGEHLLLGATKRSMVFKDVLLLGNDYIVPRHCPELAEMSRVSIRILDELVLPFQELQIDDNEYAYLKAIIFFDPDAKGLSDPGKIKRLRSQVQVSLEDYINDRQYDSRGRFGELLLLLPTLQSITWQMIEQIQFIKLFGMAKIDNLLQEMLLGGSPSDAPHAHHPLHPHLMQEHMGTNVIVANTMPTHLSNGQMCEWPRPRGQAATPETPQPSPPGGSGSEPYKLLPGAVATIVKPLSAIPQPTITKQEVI
# ALR H2O2 inh = inhibitors of human sulfhydryl oxidase ALR; P55789; purified ALR, DTT oxidation, H2O2 HRP-luminol luminescence; inhibition, % (no concentration beside the values); 290,000 tested, 3.8% active;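 active = mean and each replicate at 75% or more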;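 also: stock transfer was 7.5 nL into about 7.5 µL; 0% = neutral wells and 100% = wells with inactivated enzyme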
# LANA-H2A inh = blocks KSHV LANA binding to histone H2A/H2B; Q9QR71; cell-free LANA-H2A/H2B peptide, fluorescence polarization; inhibition, % (concentration not given with the values); 320,000 tested, 0.6% active; AID 2629; in the data active = inhibition mostly above about 10%, no sharp cut-off; inactive = mostly below about 6.7%;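 also: stock transfer was 7.5 nL into about 10 µL; 0% = median of vehicle wells and 100% = median of positive control wells; one replicate is shown; the record names a cut of 25% in any replicate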
# FGF22 binding = binders of recombinant human FGF22 by thermal shift. AID 651658. 340,000 tested, 1.5% active. calls only at 9.99 µM. SYPRO orange fluorescence; percent of sucrose octasulfate shift, DMSO zero;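 active = melting point raised past a set limit in the mean and every replicate; three in four hits are not shown here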
# Target sequence (Q9HCT0 whole entry, looked up): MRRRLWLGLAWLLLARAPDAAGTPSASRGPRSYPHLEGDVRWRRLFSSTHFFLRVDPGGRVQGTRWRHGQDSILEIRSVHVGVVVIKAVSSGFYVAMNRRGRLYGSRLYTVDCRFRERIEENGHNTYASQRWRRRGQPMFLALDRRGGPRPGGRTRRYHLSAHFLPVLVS
# Beta2AR agonist = agonists of human beta-2 adrenergic receptor inducing internalization. P07550. Am2.2-beta2AR cells, FAP receptor internalization, flow cytometry; reference of the scale not given here. response, % (concentration not given with the values). 340,000 tested, 0.43% active;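 active = response above a set limit, near 3 SD of response in nonfluorescent compounds, cut at about 42% in these data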;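 also: stock transfer was 100 nL into about 11 µL; a reference agonist was the positive control; negative values mostly stem from fluorescent compounds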
# Target sequence (P07550 whole entry, looked up): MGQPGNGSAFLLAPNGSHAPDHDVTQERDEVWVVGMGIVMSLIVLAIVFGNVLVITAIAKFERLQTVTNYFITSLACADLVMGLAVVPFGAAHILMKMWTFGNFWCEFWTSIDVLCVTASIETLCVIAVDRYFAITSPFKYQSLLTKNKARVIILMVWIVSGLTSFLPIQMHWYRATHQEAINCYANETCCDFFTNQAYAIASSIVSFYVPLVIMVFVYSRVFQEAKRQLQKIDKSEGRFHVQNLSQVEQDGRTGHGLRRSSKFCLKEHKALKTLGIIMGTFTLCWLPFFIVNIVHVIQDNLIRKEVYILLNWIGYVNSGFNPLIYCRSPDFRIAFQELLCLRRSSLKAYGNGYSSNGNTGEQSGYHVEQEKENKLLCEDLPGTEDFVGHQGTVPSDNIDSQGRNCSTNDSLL
# * = called active by the depositor; i = inactive; . = no result given. A portion of the library. The share of hits here may be higher or lower than overall.
# Start of the data: the first 3 entries (preview)
# Every second line gives: UCH37 inh	E coli growth	HNF4A DNA FP	ALR H2O2 inh	LANA-H2A inh	FGF22 binding	Beta2AR agonist
1) CCN(CC(=O)NCc1ccc(Cl)cc1)C(=O)C(C)Sc1ccccc1 (stereo unspecified)
  1.8	0.73	0.4	-1	2.8	i	-5
2) Cc1cc2oc(=O)cc(Cn3ncc(Cl)c(Cl)c3=O)c2cc1Cl
  -1.8	0.64	-2.1	-3	1.4	.	9
3) Cc1c(C(=O)NCc2ccoc2)oc2ccc3c(c12)C(=O)CC(C)(C)O3
  .	.	0.9	4	29*	.	9

# Results, from the start:
# Every second line gives: UCH37 inh	E coli growth	HNF4A DNA FP	ALR H2O2 inh	LANA-H2A inh	FGF22 binding	Beta2AR agonist
1) CCN(CC(=O)NCc1ccc(Cl)cc1)C(=O)C(C)Sc1ccccc1 (stereo unspecified)
  1.8	0.73	0.4	-1	2.8	i	-5
2) Cc1cc2oc(=O)cc(Cn3ncc(Cl)c(Cl)c3=O)c2cc1Cl
  -1.8	0.64	-2.1	-3	1.4	.	9
3) Cc1c(C(=O)NCc2ccoc2)oc2ccc3c(c12)C(=O)CC(C)(C)O3
  .	.	0.9	4	29*	.	9
4) O=C(c1cc(Cl)ccc1OCc1ccccc1)N1CCOCC1
  2.2	0.73	3.5	-11	0.5	i	0
5) CC(C)(C)OC(=O)C[C@@H]1C/C=C\C[C@@H](CC(=O)NCCO)C(=O)N2CCC[C@H]2COC1=O
  2.4	.	2.1	-2	6.7	i	-3
6) O=C(Nc1cccc(Cl)c1)C1CCCN(C2=NS(=O)(=O)c3ccccc32)C1 (stereo unspecified)
  0.9	0.66	-2.6	.	.	i	-1
7) CC(C)=CC(=O)OCC(=O)Nc1cc(C)cc(C)c1
  1.1	0.72	-1.6	-8	-0.9	i	23
8) CCn1c(CNS(=O)(=O)c2ccc(Br)cc2)n[nH]c1=S
  4.5	0.73	-0.5	-7	3.8	i	-4
9) CCOC(=O)C1=CN(Cc2cccc(F)c2)S(=O)(=O)N(C)C1c1ccc(F)c(Cl)c1 (stereo unspecified)
  0.5	0.72	4.3	.	.	i	2
10) CCCN(CC(=O)Nc1ccccc1C)C(=O)COC(=O)c1cnc(C)cn1
  2.5	0.68	-2.5	.	.	i	0
11) CC(C)c1nnc(NC(=O)CCC(=O)N2CCN(c3ccc(F)cc3)CC2)s1
  1.0	0.66	0.2	34	2.0	i	-3
12) c1nnc(NC2=NCCC2)s1
  0.7	0.71	-0.7	0	-3.2	.	3
13) CC(C)CC(=O)c1c[nH]c(C(=O)NCC2CCCO2)c1 (stereo unspecified)
  -0.7	0.68	1.4	.	2.7	.	-5
14) O=C(c1ccc(Cl)cc1)N(Cc1ccco1)C1CCS(=O)(=O)C1 (stereo unspecified)
  -0.1	0.74	-2.2	-5	-1.8	i	-4
15) COc1ccccc1C(=O)NCc1nnc(SCC(=O)Nc2nccs2)n1C
  -33	0.65	1.7	-7	4.1	i	0
16) Cc1ccc(CNC(=O)c2ccc(NS(=O)(=O)c3cccs3)cc2)cc1
  .	.	-2.1	0	0.7	i	1
17) CCOC(=O)Nc1sc(C(=O)N(CC)CC)c(C)c1C(=O)OCC
  -0.3	0.66	4.1	1	2.3	.	0
18) CCc1ccccc1N1CC23C=CC(O2)C(C(=O)OC)C3C1=O (stereo unspecified)
  1.3	0.73	1.4	-6	8.0	.	-9
19) Cc1ccc(C(=O)NNC(=O)c2ccccc2-n2cccc2)cc1
  .	.	2.2	5	-5.2	i	0
20) N#CC1(P(=O)(c2ccccc2)c2ccccc2)CC1
  0.7	0.77	3.1	-3	-4.4	.	-1
21) Cc1onc(-c2c(F)cccc2Cl)c1C(=O)Nc1nnc(-c2ccccc2)s1
  -3.7	0.73	0.4	-6	0.4	.	7
22) O=C(Nc1nccs1)c1ccc(Br)s1
  2.7	0.64	-1.2	-5	-6.3	i	1
23) Cc1ccc(OCCC(=O)NNC(=O)c2cc(C)oc2C)cc1
  -0.5	0.66	-3.4	2	-2.3	i	-1
24) CCOC(=O)N1CCN(C(=S)NC(=O)C2CCCC2)CC1
  3.2	0.69	-5.4	-2	-0.2	i	-9
25) Cc1nc(Nc2ccc(F)cc2)nc(Nc2ccc(F)cc2)c1[N+](=O)[O-]
  4.0	0.67	1.5	-8	2.8	i	6
26) COc1ccc(C(=O)/C=C/Nc2ccc([N+](=O)[O-])cc2C)c(OC)c1
  4.0	0.76	19	-6	0.0	i	8
27) Cc1cc(C)n(-c2ccn(Cc3ccc(Cl)cc3Cl)c(=O)n2)n1
  -0.9	0.71	0.8	0	0.4	.	-15
28) COc1ccc(Cl)cc1C(=O)NNC(=S)NC(=O)/C=C/c1ccco1
  6.2	0.71	-4.7	3	1.9	i	-4
29) COCc1nnc(NC(=O)c2ccccc2[N+](=O)[O-])s1
  4.8	0.68	2.4	-2	2.6	.	-3
30) CN1CCN(C(=O)c2cccc(NS(=O)(=O)c3ccc(Br)cc3)c2)CC1
  3.2	0.69	0.8	.	1.0	i	3
31) Cc1cc(NC(=O)c2cccs2)ccc1NC(=O)Cc1ccccc1
  -8.2	0.71	1.0	-17	2.2	i	-23
32) Cc1cccc(N(CC(=O)N2CCN(c3ccc(F)cc3)CC2)S(C)(=O)=O)c1C
  1.6	0.69	1.6	17	-0.3	i	-3
33) CCc1noc(C)c1C(=O)Nc1ccc(C(F)(F)F)cc1
  3.4	0.7	4.0	-4	2.3	i	8
34) COCCCN1C(=O)C(=O)/C(=C(/O)c2ccc(OC(C)C)cc2)C1c1ccncc1 (stereo unspecified)
  10	0.68	-2.9	15	0.0	.	-4
35) Cc1cc(C)nc(Nc2ccc(N3CCCC3)cc2)n1
  6.3	0.66	8.7	34	-11	.	6
36) c1ccc(-n2nc3ccccc3n2)cc1
  -4.2	0.69	0.4	-2	-4.3	.	4
37) C#CCNC(=O)C1=C[C@H](c2csc3ccccc23)[C@@H](CCCO)[C@H](OCC)O1
  4.2	.	4.2	.	5.7	i	7
38) NC(=O)NC(=O)COC(=O)/C=C/c1cccs1
  4.3	0.66	-6.1	4	5.5	i	-5
39) CCn1nnc2cc(C(=O)O)ccc21
  2.0	0.66	-3.0	-18	6.7	i	-12
40) CCN1c2ccccc2-c2nc3ccccc3n2C1c1cccs1 (stereo unspecified)
  i	0.7	1.4	58	4.9	i	0
41) CN(Cc1ccccc1)C(=O)COC(=O)c1cc(-c2ccc(Cl)s2)nc2ccccc12
  -103	0.69	2.1	2	-0.7	.	1
42) CCN(CC)CC(O)Cn1c(-c2ccccc2Cl)nc2ccccc21 (stereo unspecified)
  5.6	0.68	-1.0	-4	-2.2	i	6
43) Cc1ccc(C(=O)CSc2ncn[nH]2)cc1
  3.6	0.66	0.6	55	-0.2	.	2
44) Cc1cc(N/C=C(\C#N)S(=O)(=O)c2ccccc2Cl)nc(C)n1
  5.6	0.68	3.1	1	-3.3	i	3
45) CCc1nc2ccc(C(=O)N3CCN(c4ccc(Cl)cc4)CC3)cc2nc1CC
  1.4	0.71	-1.7	5	1.5	i	5
46) Cc1c(Cl)cccc1NC(CC(=O)c1ccccc1)C(=O)OCC(=O)c1cccs1 (stereo unspecified)
  1.2	0.71	-1.4	2	1.8	.	0
47) COC(=O)c1cccc(NC(=S)Nc2ccccc2Cl)c1
  0.4	0.66	3.2	7	3.6	i	3
48) Cc1cccc(C)c1NC(=S)N(c1ccccc1)C(C)C
  2.0	0.64	0.5	-2	2.0	i	1
49) Cc1ccn(CC(=O)NC2CC(C)(C)Cc3c2cnn3-c2ccc(F)cc2)n1 (stereo unspecified)
  0.9	0.73	-0.5	.	5.0	i	-5
50) CCCCn1c(N)c(N(CC)C(=O)c2c(CC)noc2C)c(=O)[nH]c1=O
  -0.2	0.6	-1.7	-2	0.8	i	0
51) Cc1cc(C)nc(NC(=O)Nc2ccccc2C(F)(F)F)n1
  4.8	0.69	-0.6	-4	3.2	i	-9
52) COc1ccc(S(=O)(=O)N(C)CC(=O)Nc2ccccc2C(F)(F)F)cc1Cl
  4.4	0.68	2.5	-1	7.5	.	0
53) CCCNC(=O)COC(=O)CCC(=O)c1cccs1
  2.5	0.7	-6.7	1	3.8	i	-51
54) C=CCn1c(SCC(=O)Nc2cccc3ccccc23)nc(O)c(CC)c1=O
  9.0	0.7	-0.9	98*	-1.6	.	2
55) O=C(CSc1nnc(-c2cccc(F)c2)o1)NC1CCCC1
  3.4	0.7	2.9	.	.	i	-6
56) Cc1cc(C(=O)C(=O)N(C)C)c(C)n1-c1ccc(Cl)c(Cl)c1
  3.7	0.71	-0.7	-1	-3.1	i	-17
57) O=C(NCc1cccs1)c1nc2c(nnn2Cc2ccccc2Cl)c(=O)[nH]1
  0.4	0.64	1.6	95*	-3.1	.	18
58) COc1ccc(NC(=O)Cn2nnc(-c3ccccc3F)n2)cc1
  1.2	0.76	-1.4	5	1.1	.	-1
59) CCCCC(=O)Nc1cc(C(=O)NCCc2ccccc2)ccc1Cl
  0.0	0.61	0.5	-3	0.7	.	3
60) O=S(=O)(c1ccc(F)cc1)N1CCN(C(=S)NC2CCCC2)CC1
  5.0	0.72	0.6	.	-1.6	.	-1

# The listing continues:
# Every second line gives: UCH37 inh	E coli growth	HNF4A DNA FP	ALR H2O2 inh	LANA-H2A inh	FGF22 binding	Beta2AR agonist
61) CC1(C)CC(=O)C2=C(C1)OC(=O)C2(NC(=O)c1cccs1)C(F)(F)F (stereo unspecified)
  0.8	0.69	4.4	-13	-3.3	.	-6
62) CCOC(=O)CCCCCC(=O)Nc1ccc2c(c1)CC(=O)N([C@@H](C)CO)C[C@H](C)[C@@H](CN(C)C(=O)Nc1ccc3c(c1)OCO3)O2
  3.5	.	0.8	-9	-3.0	i	1
63) S=C(NCCCc1ccccc1)Nc1ccccc1
  0.5	0.68	2.2	19	2.6	i	-8
64) COCCN(CC(=O)Nc1ccccc1C)S(=O)(=O)c1ccc(S(=O)(=O)N2CCCC2)cc1
  0.5	0.68	3.2	-6	-27	.	-7
65) Cc1ccc(S(=O)(=O)N(CC(=O)NCCSc2ccccn2)c2ccccc2F)cc1
  3.3	0.67	-1.1	0	-4.6	i	7
66) COc1ccc(C(CCN)c2ccc3c(c2)OCO3)cc1 (stereo unspecified)
  2.3	0.68	-4.7	.	-2.0	i	7
67) COc1cc2cc(C(=O)Nc3ccc4c(c3)OCCO4)[nH]c2cc1OC
  2.2	0.69	1.6	-15	1.6	i	10
68) Cc1[nH][nH]c(=O)c1N=Nc1ccc(Br)c(Cl)c1
  6.1	0.65	-2.6	6	17	i	-7
69) COc1cccc(C(=O)NCCSc2ccc(F)cc2)c1
  -0.6	0.64	0.6	-12	0.7	i	1
70) O=C(NC(Cc1ccccc1)C(=O)O)c1ccc(S(=O)(=O)N2CCCCC2)cc1 (stereo unspecified)
  -0.5	0.68	2.2	9	-1.8	.	15
71) O=[N+]([O-])c1cc(/C=N/n2cnnc2)ccc1N1CCCC1
  .	.	-3.4	-2	-9.4	i	-5
72) Fc1ccc(-c2cc(C(F)(F)F)n3ncnc3n2)cc1
  -186	0.71	-0.5	4	-2.8	i	6
73) Cc1ccc(C(=O)Cn2nc(C(=O)O)c3ccccc3c2=O)cc1C
  4.4	0.67	0.8	2	-1.3	i	-1
74) COc1ccc(-c2csc3ncnc(N4CCN(c5cccc(OC)c5)CC4)c23)cc1
  1.7	0.73	0.2	-2	-6.4	i	14
75) Cc1cc(C)c(NC(=O)c2cc(S(=O)(=O)N3CCOCC3)ccc2F)c(C)c1
  5.9	0.69	-0.1	.	2.0	i	-8
76) O=C(COC(=O)COc1ccc(Cl)cc1)Nc1ccc2c(c1)OCCO2
  3.9	0.67	-2.0	-2	-0.2	i	4
77) CSCC[C@H](NC(=O)c1ccc(Br)o1)c1nnc2ccccn12
  -1.2	0.66	3.1	-8	-2.1	i	-6
78) Cc1oc2ccc(OC(=O)c3cccs3)cc2c1C(=O)OC(C)C
  2.2	0.68	-0.2	-8	-3.9	i	-1
79) CCc1ccc(C(O)(C(C)C)C(CN2CCOCC2)c2ccccc2)cc1 (stereo unspecified)
  -0.6	0.66	-3.2	-6	0.7	i	2
80) c1ccc(-n2c(SCC3CCCCO3)nnc2-c2cnccn2)cc1 (stereo unspecified)
  0.8	0.7	-3.4	4	1.0	.	-3
